Compound activity from PubChem BioAssay.
AID504770 = E. coli YBA685 growth inhibition, screen for V. cholerae RctB inhibitors; E. coli YBA685 rctB-dependent plasmid, OD600 growth, 3 h; hits give low values; z-score (no concentration beside the values); 130,000 compounds, 0.27% hits; AID 504770;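 active = z-score under -2 on both plates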;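 note: wells of about 30 µL received 100 nL stock; score is relative to mean and SD of the test wells; the first replicate is given; strong numbers were not always called active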
CapD inh = blocks the Bacillus anthracis CapD enzyme. z-score (no concentration beside the values). AID 492967. purified CapD enzyme, fluorescence intensity read-out; hits give low values; some hits fall short of the stated cut. 140,000 compounds, 0.23% hits;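 active = z-score under -4 in either of two replicates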;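 note: stock transfer was 100 nL into about 40 µL; score is relative to mean and spread of the plate; one replicate is shown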
The depositor's hits bear a star. A portion of the library; the hit share may differ from the screen's.

`Cc1csc(NC(=O)c2cccnc2)n1` gave AID504770 -0.85.
`O=C(Cc1c[nH]c2ccccc12)N1CCN(S(=O)(=O)c2ccc(F)cc2)CC1` gave AID504770 -1.4 and CapD inh 0.29.
For O=c1cc(C(F)(F)F)nc(C2CC2)[nH]1 the results were CapD inh -0.45.
`CCCCc1cc(=O)oc2cc(OCC(=O)c3ccc(F)cc3)ccc12` gave AID504770 -1.2 and CapD inh -0.57.
Screening CN1C(=O)c2ccccc2Sc2ccc(NC(=O)NCCCN3CCOCC3)cc21 returned AID504770 0.2 and CapD inh -0.57.
`O=C1Nc2ccccc2C12OCC(CO)([N+](=O)[O-])CO2` (stereo not given) gave CapD inh -0.085.
CC1Cc2ccccc2N1C(=O)COc1ncnc2ccc(Br)cc12 (stereo not given) was read as AID504770 -0.25.
Screening CCOC(=O)Cn1nc(C(F)(F)F)c(Br)c1C1CC1 returned AID504770 0.2 and CapD inh 0.78.
Screening Cc1ccc(-c2nn(-c3ccccc3Cl)cc2C(=O)Oc2ccc(-c3nnco3)cc2)cc1 returned AID504770 -0.05.
Screening CC(C#N)(Nc1ccc(Cl)cc1)c1ccccc1 (stereo not given) returned AID504770 -0.25 and CapD inh -0.98.
Cc1cccc(N(CC(O)CN(CC(C)C)CC(C)C)S(=O)(=O)c2ccccc2)c1 (stereo not given) was read as CapD inh -0.33.
Screening CCn1c(=O)n(CC)c2cc(NC(=O)CSc3ncc(C#N)c(N)n3)ccc21 returned AID504770 -0.65.
Screening COc1ccc2cc(CCNC(=O)C(C)C)c(=O)[nH]c2c1 returned AID504770 -0.1 and CapD inh 12.
Screening CC(C)N(C(=O)C1CC(=O)OC12CCCCC2)C(C)C (stereo not given) returned AID504770 -0.4 and CapD inh -0.97.
Screening Cc1ccc(C(=O)CCNc2ccc(F)c(Cl)c2)o1 returned AID504770 0.45.
CCn1cc2nc(SC)n(CCc3ccccc3)c(=O)c2n1 was read as AID504770 -0.5 and CapD inh -0.13.
Screening COC(=O)c1ccccc1NC(=O)c1c(F)cccc1F returned CapD inh -0.32.
Screening O=C(COc1coc(CN2CCN(Cc3ccccc3)CC2)cc1=O)NC1CCCCC1 returned AID504770 0.65.
For COc1cc(C(Nc2ccc(S(=O)(=O)NCC3CCCO3)cc2)C(=O)NC(C)(C)C)cc(OC)c1OC (stereo not given) the results were AID504770 1.1.
For COc1c2c(nc3occc13)C(CC=C(C)C)(OC)C(O)CC2 (stereo not given) the results were AID504770 -0.8 and CapD inh 0.58.
For O=S(=O)(NC1CC1)c1ccc(S(=O)(=O)N2CCC3(CC2)OCCO3)cc1 the results were AID504770 -0.7.
`Cc1c(C(=O)NCCN2CCOCC2)oc2c1-c1nn(Cc3ccccc3Cl)cc1CC2` gave AID504770 0.05 and CapD inh 7.9.
Screening CC(C)(CO)NC(=O)c1cccc(C(=O)NC(C)(C)CO)c1F returned CapD inh 0.14.
Screening CCOC(=O)c1cc(-c2cccs2)nn1C(=O)c1ccccc1 returned AID504770 -0.35 and CapD inh 0.095.
Screening CCN(CC)c1ccc(C=Nc2cc(C)cc(C)c2)cc1 returned AID504770 -0.35 and CapD inh -1.4.
Screening COc1cc(/C=N/NC(=O)c2ccccc2NC(=O)c2cccs2)ccc1OC(C)=O returned CapD inh -0.065.
CC1(c2ccc(Cl)cc2)NC(=O)N(CN2CCCC(C(F)(F)F)C2)C1=O (stereo not given) was read as AID504770 -0.05.
For O=C1NC(Cc2ccccc2)(Cc2ccccc2)C(=O)N1Cc1nnc(-c2cccs2)o1 the results were AID504770 0.1.
O=C(O)c1ccc(-c2ccsc2)cc1 was read as AID504770 0.85 and CapD inh 0.095.
Screening CCc1ccc2nc(N3CCCC3)c(C#N)cc2c1 returned AID504770 0.15.
Screening Cc1ccc(S(=O)(=O)NC(=O)O/N=C(\N)c2ccc(C(C)(C)C)cc2)cc1 returned CapD inh -0.54.
`Cc1ccc(Oc2c(COC(=O)CCl)c(-c3ccccc3)nn2C)cc1` gave CapD inh 0.3.
`c1ccc(-c2cn3c4ccccc4n(CCN4CCCCC4)c3n2)cc1` gave AID504770 1.2 and CapD inh 0.95.
Screening O=C(Nc1cccn(Cc2ccccc2)c1=O)NC1CCCCC1 returned AID504770 -0.25.
Screening O=C1NCCN1CCNS(=O)(=O)c1ccc(F)c(Cl)c1 returned AID504770 -0.75 and CapD inh -0.64.
Cc1nnc(SC(C)C(=O)Nc2ccccc2)[nH]c1=O (stereo not given) was read as AID504770 -0.55.
Screening COc1ccc(N2CCN(c3ccc(S(=O)(=O)N(C(C)C)C(C)C)cn3)CC2)cc1 returned AID504770 -0.65.
CC(=O)Nc1ccccc1-c1nc2ccc(C(=O)NC3CCCC3)cc2[nH]c1=O was read as AID504770 -2 and CapD inh -0.54.
`CCOC(=O)c1c(N2C(=O)CSCC2=O)sc2c1CCCC2` gave AID504770 -0.35 and CapD inh -1.1.
Cc1cccc(N2C(=O)C(=O)/C(=C(/O)c3ccccc3)C2c2ccccc2F)c1 (stereo not given) was read as CapD inh -0.44.
For C=C(C)CNC(=S)N1CCSC1=Nc1ccccc1OC the results were AID504770 0.
`C=CCSc1ncccc1C(=O)NCc1ccccc1` gave AID504770 -1.2 and CapD inh 0.34.
For CC(C)(O)c1cc(=O)sc2nc3ccccc3n12 the results were AID504770 -0.05.
Cc1ccc(C(=O)c2sc3nc(C)ccc3c2N)cc1 was read as AID504770 -0.6 and CapD inh 8.8.
Cc1cc(C)cc(OCC(=O)N2CCNC(=O)C2CC(=O)OCc2ccccc2)c1 (stereo not given) was read as AID504770 -0.1 and CapD inh -1.1.
`CC1CCC(C(C)C)C(OCC(O)CNC(C)(C)C)C1` (stereo not given) gave AID504770 -0.05 and CapD inh 0.31.
Screening COc1ccc2nc(-c3ccccc3)nc(N3CCCCC3)c2c1 returned AID504770 0.8 and CapD inh 38.
Screening COc1ccccc1CNC(=O)C(C)N1C(=O)COc2ccc(C)cc21 (stereo not given) returned AID504770 1.4 and CapD inh -0.95.
Cc1ccc(-n2c(SCC(=O)NCC3CCCO3)nc3n[nH]c(C)c3c2=N)cc1Cl (stereo not given) was read as AID504770 -0.45 and CapD inh 1.
Screening CCC1/C(=N\O)CC(c2ccco2)NC1c1ccco1 (stereo not given) returned AID504770 -0.35.
`O=C(Nc1ccc(F)cc1)N1CCCC(c2nc3c(nnn3Cc3ccccc3Cl)c(=O)[nH]2)C1` (stereo not given) gave AID504770 -0.25.
Screening COc1cccc(CNC(=O)Nc2ccc3nc(N4CCN(C)CC4)cc(C)c3c2)c1 returned AID504770 0.2 and CapD inh 99.
For C(=Nc1cccc2c(N=Cc3ccco3)cccc12)c1ccco1 the results were AID504770 -0.65 and CapD inh 27.
O=S(=O)(c1ccc(Cl)s1)N1CCSc2ccccc21 was read as AID504770 0.2.
`O=C(Oc1ccc2ccccc2c1)c1cccs1` gave AID504770 -0.45 and CapD inh 0.35.
`COc1cccc(/C=C2\N=C(c3ccc(Br)cc3)OC2=O)c1` gave CapD inh 0.57.
Screening O=C(O)/C=C\C(=O)N1CCCN(c2nc3ccc(Cl)cc3s2)CC1 returned CapD inh -0.21.
Screening Cc1ccc(NC(=O)Cn2nnc3ccccc32)cc1 returned AID504770 0 and CapD inh -0.14.
S=c1sc2ccccc2n1CN1CCN(Cc2ccccc2)CC1 was read as AID504770 -0.45 and CapD inh -1.5.
`CCN(CC)C(=O)c1ccc(COc2ccc(Cl)c(C)c2)o1` gave AID504770 0 and CapD inh 0.64.
Cc1nc(NCC(=O)O)c2oc3ccccc3c2n1 was read as AID504770 -0.6.
CCOC(=O)C1C(=O)NC(SCC(=O)Nc2c(C)cc(C)cc2C)=C(C#N)C1c1ccccc1Cl (stereo not given) was read as CapD inh -0.54.
For Cc1ccc(C(=O)NNc2ncnc3c2cnn3C)cc1 the results were AID504770 -0.9 and CapD inh -0.89.
CCc1cccc(CC)c1NC(=O)COC(=O)c1ccc2ccccc2n1 was read as AID504770 1.1 and CapD inh -0.05.
For COC(=O)C1CCN(C(=O)c2ccc(Cl)cc2)CC1 the results were AID504770 0.15 and CapD inh 0.07.
Screening CC[C@H](C)[C@H](NC(N)=O)C(=O)Nc1ccccc1 returned AID504770 -0.75.
`CC(C)(C)C1CC=C2[C@H](C1)[C@@H](c1ccsc1)C(C#N)=C(N)C2(C#N)C#N` (stereo not given in full) gave AID504770 1.8 and CapD inh 1.4.
Screening O=C1CSc2ccc(S(=O)(=O)CCC(=O)N3CCCCCC3)cc2N1 returned AID504770 0.1 and CapD inh -0.35.
`Cc1nn(C)c(C)c1CNC(=O)c1cc2nc(-c3ccc4c(c3)OCO4)cc(C(F)(F)F)n2n1` gave AID504770 2.2 and CapD inh -0.01.
Screening O=C(NCc1ccc2c(c1)OCO2)c1ccc(Cl)cc1 returned AID504770 -0.7 and CapD inh -0.17.
Screening CC(=O)Nc1ccc(C)c(OC(F)F)c1 returned AID504770 0.1.
Screening O=C(N=Nc1c(O)n(CN2CCCC2)c2ccccc12)c1ccccc1 returned AID504770 2.5.
Screening COc1ccc(NC(=O)CCSc2nc3ccccc3s2)cc1 returned AID504770 0.3 and CapD inh -0.47.
For O=C(NC1CCCC1)C(c1cccs1)N(Cc1ccccc1)C(=O)C(F)(F)F (stereo not given) the results were AID504770 -0.15 and CapD inh -0.32.
Screening O=S(=O)(c1ccc(Cl)cc1)N1CCN(Cc2ccc3c(c2)OCO3)CC1 returned CapD inh 0.21.
`O=C(Cc1cccs1)NCc1ccc2[nH]c3c(c2c1)CCCC3` gave AID504770 2.1 and CapD inh 1.8.
Screening CN(C)C(=S)SCC(=O)NC1CCCCCC1 returned AID504770 -0.3.
N/C(COc1ccc(-c2csnn2)cc1)=N\O was read as AID504770 -0.8 and CapD inh 0.06.
`CN(C)S(=O)(=O)c1ccc(N=CC2=C(O)CC(C)(C)CC2=O)cc1` gave AID504770 0.5.
O=C(COC(=O)C1CC1)c1ccccc1Br was read as AID504770 0.3.

Some of these compounds in order of SMILES length, lowest first:
Screening CC(=O)Nc1ccc(C)c(OC(F)F)c1 returned AID504770 0.1.
Screening CN(C)C(=S)SCC(=O)NC1CCCCCC1 returned AID504770 -0.3.
N/C(COc1ccc(-c2csnn2)cc1)=N\O was read as AID504770 -0.8 and CapD inh 0.06.
Cc1nc(NCC(=O)O)c2oc3ccccc3c2n1 was read as AID504770 -0.6.
For Cc1ccc(C(=O)NNc2ncnc3c2cnn3C)cc1 the results were AID504770 -0.9 and CapD inh -0.89.
Screening O=C(NCc1ccc2c(c1)OCO2)c1ccc(Cl)cc1 returned AID504770 -0.7 and CapD inh -0.17.
Screening CC[C@H](C)[C@H](NC(N)=O)C(=O)Nc1ccccc1 returned AID504770 -0.75.
`O=C(Cc1cccs1)NCc1ccc2[nH]c3c(c2c1)CCCC3` gave AID504770 2.1 and CapD inh 1.8.
CCc1cccc(CC)c1NC(=O)COC(=O)c1ccc2ccccc2n1 was read as AID504770 1.1 and CapD inh -0.05.
Screening O=C(N=Nc1c(O)n(CN2CCCC2)c2ccccc12)c1ccccc1 returned AID504770 2.5.
Screening O=C1CSc2ccc(S(=O)(=O)CCC(=O)N3CCCCCC3)cc2N1 returned AID504770 0.1 and CapD inh -0.35.
`CN(C)S(=O)(=O)c1ccc(N=CC2=C(O)CC(C)(C)CC2=O)cc1` gave AID504770 0.5.
For O=C(NC1CCCC1)C(c1cccs1)N(Cc1ccccc1)C(=O)C(F)(F)F (stereo not given) the results were AID504770 -0.15 and CapD inh -0.32.
`CC(C)(C)C1CC=C2[C@H](C1)[C@@H](c1ccsc1)C(C#N)=C(N)C2(C#N)C#N` (stereo not given in full) gave AID504770 1.8 and CapD inh 1.4.
CCOC(=O)C1C(=O)NC(SCC(=O)Nc2c(C)cc(C)cc2C)=C(C#N)C1c1ccccc1Cl (stereo not given) was read as CapD inh -0.54.
`Cc1nn(C)c(C)c1CNC(=O)c1cc2nc(-c3ccc4c(c3)OCO4)cc(C(F)(F)F)n2n1` gave AID504770 2.2 and CapD inh -0.01.

The main list resumes; the 3 compounds before the break are reprinted first.
N/C(COc1ccc(-c2csnn2)cc1)=N\O was read as AID504770 -0.8 and CapD inh 0.06.
`CN(C)S(=O)(=O)c1ccc(N=CC2=C(O)CC(C)(C)CC2=O)cc1` gave AID504770 0.5.
O=C(COC(=O)C1CC1)c1ccccc1Br was read as AID504770 0.3.
For C=CCSc1ncc(-c2ccccc2)cn1 the results were AID504770 -1.4 and CapD inh 0.27.
Screening O=C1C=CC(=O)N1CCc1ccccc1 returned AID504770 -1.6 and CapD inh 0.01.
`COc1ccc(N2Cc3ccc(OC)c(OC)c3C2=O)cc1` gave AID504770 0.5 and CapD inh 1.
Screening O=C(N/N=C/c1ccc([N+](=O)[O-])o1)c1ccc(O)cc1 returned CapD inh -0.3.
For COc1cc(/C=N/n2c(=S)[nH]nc(C)c2=O)cc(OC)c1OC the results were AID504770 -0.6 and CapD inh -2.2.
For Brc1ccc(-c2csc(Nc3cccnc3)n2)cc1 the results were CapD inh 0.43.
For O=C(NC1CCCCCC1)c1ccc(CS(=O)(=O)Cc2ccccc2F)o1 the results were AID504770 0.15 and CapD inh 0.06.
N#CC1=C(N)OC2=C(C(=O)CCC2)C12C(=O)Nc1ccc([N+](=O)[O-])cc12 (stereo not given) was read as CapD inh -1.2.
Brc1cccc(Nc2nc3nonc3nc2NCc2ccco2)c1 was read as AID504770 -0.85.
Screening CC(=O)Nc1c(C)nc2nc[nH]n2c1=O returned AID504770 0.9 and CapD inh -1.4.
For Cc1cc(C)c(CCOC(=O)N2CCN(c3ccccc3F)CC2)c(C)c1 the results were CapD inh -0.93.
Screening C[C@H]1[C@H]2CC[C@H]3[C@@H]4CC=C5C[C@@H](N(C)C)CC[C@]5(C)[C@H]4CC[C@]23CN1C returned CapD inh -0.99.
Screening CCOC(=O)c1ccsc1NC(=O)CN1C(=O)c2ccccc2C1=O returned AID504770 -0.85.
Nc1ccccc1C1CC1 was read as AID504770 -0.4.
For CC1(C)COC(c2ccc(O)cc2)OC1 the results were AID504770 -0.5 and CapD inh -0.12.
